Bioassay records: PubChem BioAssay, National Center for Advancing Translational Sciences (NCATS)
GLA inh pH 4.5: inhibitors of human alpha-galactosidase A at pH 4.5. 230,000 tested, under 10 active. purified enzyme, 4-MU-alpha-Gal fluorescence, pH 4.5. P06280. AID 1467. activity change, negative = inhibition, % at 105 µM; inconclusive = small, poorly fitted or top-dose-only inhibition, or a rising curve; inactive = flat fitted curve, though single readings scatter; no compound was filed as active;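 note: 0% = full activity with enzyme and -100% = basal without enzyme; dose as in the result columns while the protocol names 77 µM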
miR-21 FLuc: raises the signal of a miR-21 reporter; HeLa miR-21 FLuc reporter, luciferase, 48 h; Potency, µM (series often up to 38.3 µM), for inactives: top-dose reporter change, positive = more light; 340,000 tested, under 10 active; active = well fitted rising curve with a large enough effect; inconclusive = small, poorly fitted or top-dose-only effect; inactive = no such curve, though single readings can be large or run the other way;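 note: % of control where 0% means no effect; miR-21 action dims this reporter so a rising signal means less miR-21 action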
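HeLa miR-21-FLuc reporter line, endogenous miR-21; 2000 cells/well in DMEM/10% FBS; compound titration up to ~40uM final, 48 h, 37 degree Celsius; luciferase detection reagent, 15 min lysis, CCD luminescence.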
Rango-impB inh: prevents formation of the Rango-importin beta complex; Rango CFP/YFP FRET sensor + importin beta, 45 min; AID 540263; actives 0.031% (n = 340,000); Q14974; Potency, µM (top dose mostly 92.2 µM), for the others: at the highest dose inhibition of complex formation; active = rising FRET ratio curve, often small or poorly fitted; inconclusive = mostly compound fluorescence or quenching in the first reads; inactive = flat curves in all reads;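 note: potency is the fitted concentration of half-maximal effect; 0% = DMSO wells and 100% = buffer wells lacking importin beta; nearly all actives have a fitted effect of over 15% in size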
Target sequence (Q14974 whole entry, looked up): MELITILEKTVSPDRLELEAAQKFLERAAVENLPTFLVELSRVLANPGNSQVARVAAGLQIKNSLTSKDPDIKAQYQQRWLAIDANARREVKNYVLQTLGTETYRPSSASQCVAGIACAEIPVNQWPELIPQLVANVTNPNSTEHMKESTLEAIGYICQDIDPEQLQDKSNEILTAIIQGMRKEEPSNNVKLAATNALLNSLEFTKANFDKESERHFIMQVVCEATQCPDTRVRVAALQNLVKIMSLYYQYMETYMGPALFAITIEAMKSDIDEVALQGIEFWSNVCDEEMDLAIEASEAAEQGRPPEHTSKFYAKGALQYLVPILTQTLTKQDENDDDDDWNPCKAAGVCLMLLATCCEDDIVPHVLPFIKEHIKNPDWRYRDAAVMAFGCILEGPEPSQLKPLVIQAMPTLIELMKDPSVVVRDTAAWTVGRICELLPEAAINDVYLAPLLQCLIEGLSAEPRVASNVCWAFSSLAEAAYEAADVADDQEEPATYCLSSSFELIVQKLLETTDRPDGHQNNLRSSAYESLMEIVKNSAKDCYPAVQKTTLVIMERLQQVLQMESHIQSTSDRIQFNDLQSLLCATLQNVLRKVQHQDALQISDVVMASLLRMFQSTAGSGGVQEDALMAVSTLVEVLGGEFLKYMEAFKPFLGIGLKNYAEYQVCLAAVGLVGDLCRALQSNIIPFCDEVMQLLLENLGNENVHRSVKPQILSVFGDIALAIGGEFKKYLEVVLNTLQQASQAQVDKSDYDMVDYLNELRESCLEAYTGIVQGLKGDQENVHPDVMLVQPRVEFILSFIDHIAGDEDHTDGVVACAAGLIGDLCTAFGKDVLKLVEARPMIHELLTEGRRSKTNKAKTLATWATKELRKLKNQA
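FRET biosensor (snurportin 1 IBB flanked by EYFP and cerulean), 50 nM, with compound 5 min, then 0.125 microM importin beta in PBS, 1 mM DTT, 0.02% Tween-20, 0.1% BSA. CFP/YFP ratio read after 45 min at room temperature; pre-read flags interference.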
Rango release inh: inhibitors of RanGTP-induced Rango-importin beta complex dissociation. Biochemical FRET Rango-importin beta, RanGTP-induced dissociation. O95149+P62826. Potency, µM (doses to about 46.1 µM), inactives show at the highest dose activity change, negative = inhibition. actives 0.071% (n = 340,000). AID 540253; active means falling FRET ratio curve, often poorly fitted, with flat reads before Ran was added; inconclusive means other falling curves, or compound fluorescence or quenching; inactive means flat or rising ratio curve;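 note: potency is the fitted concentration of half-maximal effect; % of control where 0% means no effect; nearly all actives have a fitted effect of over 45% in size; -100% = wells without RanGTP and RCC1; the record marks most hits as doubtful in a second field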
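Rango/importin beta premix (0.1/0.25 uM final), PBS + 1 mM DTT + 0.02% Tween-20 + 0.1% BSA; cpd 5 min RT; FRET pre-read; + RanGTP-RCC1 (0.6 uM Ran, 2 mM GTP, 0.2 uM RCC1); 45 min RT; FRET post-read, ex 430, em 486/530 nm.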
Starred values were filed as active, the others as inactive; ? = inconclusive; · = no result given; & = joins results of further samples. A portion of the library; the hit share may differ from the screen's.

Start of the data: the first 3 entries, to show the layout:
SMILES	GLA inh pH 4.5	miR-21 FLuc	Rango-impB inh	Rango release inh
CCOC(=O)N1CCC(NC(=O)C2=CCN(S(=O)(=O)c3ccc(OC)cc3)CC2)CC1	-9.2	5.6%	-0.4%	-27.1%
CSc1nnc(-c2cnccn2)n1CCCN1CCCC1=O	-1.5	-2.1%	-0.5%	0.4%
Cc1nnc(-c2cnn(C)c2N)n1Cc1cccc(Cl)c1	7.2	-5.7%	0.0%	7.5%

This part in full (from the top)
SMILES	GLA inh pH 4.5	miR-21 FLuc	Rango-impB inh	Rango release inh
CCOC(=O)N1CCC(NC(=O)C2=CCN(S(=O)(=O)c3ccc(OC)cc3)CC2)CC1	-9.2	5.6%	-0.4%	-27.1%
CSc1nnc(-c2cnccn2)n1CCCN1CCCC1=O	-1.5	-2.1%	-0.5%	0.4%
Cc1nnc(-c2cnn(C)c2N)n1Cc1cccc(Cl)c1	7.2	-5.7%	0.0%	7.5%
COc1cc(OC)cc(C(=O)NCC(=O)OCc2csc(-c3ccccc3)n2)c1	0.2	-21.9%	3.9%	-5.0%
CCCn1c(=O)c(C(=O)NNC(=O)c2cccc([N+](=O)[O-])c2)c(O)c2ccccc21	·	-1.6%	0.1%	-10.3%
COc1cc(S(=O)(=O)Nc2cccc(C)c2)ccc1NC(=O)c1cccnc1	4.5	0.4%	2.0%	1.4%
Cc1ccc(Cn2nc3c4cc(F)ccc4n(Cc4ccc(F)cc4)cc-3c2=O)cc1	·	-0.2%	-0.3%	-7.8%
O=C(c1ccc(N2C(=O)C3CCCCC3C2=O)cc1)N1CCCCC1 (configuration not stated)	-1.2	-2.2%	-1.6%	-7.4%
Cc1nnc(SCC(=O)NC23CC4CC(CC(C4)C2)C3)n(N)c1=O	-10.4	-2.2%	0.2%	-13.2%
COc1ccc(OCC(=O)NNC(=O)c2ccccn2)cc1	-8.5	3.7%	-3.5%	-12.2%
CN(C)C(=O)OCC1COc2ccccc2O1 (configuration not stated)	-5.1	-15.2%	2.9%	10.2%
c1ccc(OCCOc2cccc3cccnc23)cc1	-9.9	-70.8%	-0.4%	-9.2%
CCOC(=O)c1cnc2c(Cl)c(Cl)ccc2c1NCCN1CCOCC1	·	-0.7%&-8.1%	0.4%	-1.0%
CC(=O)c1ccc(N2CCN(c3ccc(C(F)(F)F)cn3)CC2)cc1	-1.7	-9.7%	-0.4%	-12.9%
COCCSc1nc(N)c2c3c(sc2n1)CN(C)CC3	1.2	-15.6%	?	?
O/N=C/c1ccccc1Oc1ccc(Cl)cc1	-16.3	13.3%	3.1%	14.6%
Cc1c(Cl)cccc1NC(=S)N(CCCN1CCOCC1)Cc1cccs1	-7.6	21.5%	-2.7%	-2.2%
CCCCOc1ccc(N(CC(=O)NC2CCCC2)C(=O)CCC(=O)Nc2ccccn2)cc1	0.7	-5.4%	-1.0%	11.8%
Cc1cc([N+](=O)[O-])nn1CC(=O)NCc1ccco1	-8.2	-3.2%	-5.0%	34.5%
O=c1oc2cc(O)ccc2cc1-c1nc2c(s1)CCc1ccccc1-2	7.8	-0.6%	?	?
COc1ccc(C(=O)Nc2cc(C)nc3ccccc23)cc1OC	6.2	4.8%	-4.8%	1.3%
CN(C)/C=C1\C(=O)NN=C1C(F)(F)F	-0.2	-0.1%	3.6%	-8.7%
O=C(O)C1CSC(c2ccc(O)c([N+](=O)[O-])c2)N1 (configuration not stated)	-3.7	-0.7%	2.9%	-0.5%
CCOc1ccccc1N1CCN(C(=O)c2cc[n+]([O-])cc2)CC1	-9.4	-0.8%	-1.2%	2.6%
Cc1ccc(CNC(=O)c2sccc2-n2cccc2)cc1	-7.1	-5.6%	0.6%	-11.7%

Continued:
SMILES	GLA inh pH 4.5	miR-21 FLuc	Rango-impB inh	Rango release inh
O=C1Oc2ccccc2C2(O)C3CCCCCC3C12 (configuration not stated)	-5.7	0.2%	?	-6.6%
c1ccc(N2CCN(c3nc4ccccc4n4cnnc34)CC2)cc1	-16.5	-11.9%	-2.7%	0.6%
O=c1c(-c2n[nH]c(=S)o2)cccn1Cc1ccccc1	12.1	-4.8%	?	?
CC(=O)c1ccccc1NC(=O)CCCNC(=O)c1ccc(Cl)cc1	·	-5.3%	0.8%	0.7%
CCCNC(=O)NC(=O)COC(=O)c1oc2ccc(OCC)cc2c1C	1.7	-14.7%	7.7%	1.1%
CN(C)CC(O)COc1ccc(C(C)(C)c2ccc(OCC(O)CN(C)C)cc2)cc1 (configuration not stated)	1.2	-14.2%	-0.4%	2.0%
O=C(O)C1CCN(C(=O)COc2ccc3c4c(c(=O)oc3c2)CCC4)CC1	-7.1	1.9%	-1.8%	0.6%
Cn1c(=O)[nH]c2ccc([N+](=O)[O-])nc21	-16.7	-1.9%	1.7%	8.8%
CC1CN(C(=O)c2ccc3c(c2)OCO3)CC(C)O1 (configuration not stated)	-11.6	-1.1%	3.7%	-2.0%
CCOC(=O)CSc1nc2ccccc2c(=O)n1Cc1ccco1	11.8	-8.4%	0.0%	0.7%
Nc1nc(Nc2ccc(Cl)cc2)n[nH]1	-9.8	-5.2%	0.7%	-8.9%
C=CCOc1cc(C)nc(-c2ccccc2O)n1	-0.3	0.6%	5.3%	14.4%
O=S(=O)(/C=C/c1ccccc1)N1CCN(c2cccc(Cl)c2)CC1	0.9	-2.3%	0.4%	1.8%
CCOC(=O)C1=CCN(Cc2ccccc2)CC1	·	-0.7%	0.5%	-2.4%
COc1ccc(C2CC(c3ccccc3)=NN2S(=O)(=O)c2ccccc2)c(OC)c1 (configuration not stated)	-2.6	-3.5%	3.8%	7.3%
CCCC1S/C(=N/N=C/c2cccs2)NC1=O (configuration not stated)	-1.5	-2.8%	2.8%	2.9%
COc1cc(NC(=O)c2ccc3c(c2)OCO3)ccc1NC(=O)c1cccs1	6.4	-8.9%	-1.3%	-5.0%
Cc1ccc(C(=O)CC(C(=O)O)n2cccn2)cc1 (configuration not stated)	-6.5	-1.5%	2.4%	8.3%
CN(C)c1ccc(/C=C(\NC(=O)c2ccccc2)C(=O)NCCCN2CCOCC2)cc1	·	-0.7%	-0.1%	2.4%
COC(=O)C(C)NC(=O)c1cn(-c2ccccc2OC)c(=O)c2ccccc12 (configuration not stated)	·	-3.0%	3.0%	-0.7%
Cc1cccc(OCC(=O)O/N=C(\N)c2ccccn2)c1C	-0.8	-61.5%	1.4%	-3.5%
Cc1ccc(S(=O)(=O)N(C)/C(=N/S(=O)(=O)c2ccccc2)c2ccccc2)cc1	-10.1	-4.3%	-1.9%	2.7%
CN1CCN(c2ccc(Cl)cc2NC(=O)c2cccc(S(=O)(=O)N(C)C)c2)CC1	-2.4	-0.2%	-0.3%	-17.1%
CCc1ccc(C(=O)CC2(O)C(=O)N(CN3CCOCC3)c3ccccc32)cc1 (configuration not stated)	2.2	-7.0%	-4.4%	-19.7%
c1ccc(-c2cn3c(n2)-c2ccccc2C3)cc1	5.8	2.2%	-1.7%	9.7%

New compounds follow
SMILES	GLA inh pH 4.5	miR-21 FLuc	Rango-impB inh	Rango release inh
COc1ccc([C@@H]2[C@@H]3C(=O)N(C(C)(C)C)C(=O)[C@@H]3[C@]3(C)C(=O)N(c4cccc(F)c4)C(=O)N23)cc1	·	0.4%	2.9%	-1.9%
COC(=O)c1ccc(CSc2nnc(CNC(=O)COc3ccc(Cl)cc3)o2)o1	-10.7	-0.4%	0.6%	1.5%
CC(C)n1cc(CN2CCC(Oc3ccc(C(=O)N4CCCC4)cc3)CC2)cn1	·	-2.3%	4.7%	12.4%
CCCOC(=O)C(C)n1c(-c2ccccc2)nc2ccccc2c1=O (configuration not stated)	-10.6	-4.3%	1.6%	38.8%
COc1cc(Cl)c(CN2CCC(CO)(CCOc3ccccc3)CC2)cc1OC	·	9.7%	-2.9%	-4.6%
CCOC(=O)Cc1csc(N/N=C\c2cccc(Br)c2)n1	0.1	7.1%	?	-4.6%
CC1CC(C)CN(C(=O)CCc2nnc3ccc(N4CCCCC4)nn23)C1 (configuration not stated)	·	-7.3%	1.1%	6.3%
CNc1nc(SC(C)C(=O)Nc2ccc(Cl)c(Cl)c2)nc(N2CCOCC2)n1 (configuration not stated)	-1.7	-2.1%	2.9%	1.1%
CCOC(=O)N1CCC(N2Cc3cccc(C(=O)Nc4ccc(F)cc4)c3C2=O)CC1	-8.4	-6.1%	0.2%	-15.0%
O=C(NCc1cccs1)c1cc(-c2cccs2)on1	-3.2	-51.9%	-0.5%	-9.8%
CCn1cc(CN2CCCC(C(=O)Nc3ccc(-c4cscn4)cc3)C2)c(C)n1 (configuration not stated)	·	-15.5%	2.7%	13.2%
CCc1cccc(NC(=S)N(CCCOC(C)C)C2CCN(C(C)=O)CC2)c1	·	-3.3%	-0.1%	12.7%
CCOC(=O)Cn1c(=O)oc2cc(S(=O)(=O)N(C)Cc3ccco3)ccc21	-3.8	-2.2%	-1.2%	-7.6%
CC(C)NC(=O)c1ccccc1NC(=O)C(C)Oc1ccccc1 (configuration not stated)	0.8	-3.4%	-2.0%	-4.5%
Cc1cc(N=Nc2ccc(C)c(N=Nc3cc(C)c(N)cc3N)c2)c(N)cc1N	-3.8	-45.2%	4.5%	2.1%
Cn1nnnc1SCC(=O)Nc1nc2c(s1)CCCC2	6.3	-54.5%	-2.7%	-3.3%
O=C(Nc1nc2c(Br)cccc2s1)C1CC1	·	6.5%	-1.0%	-6.3%
O=C(Oc1c(CN2CCOCC2)cc(Cl)c2cccnc12)c1ccccc1Cl	-0.5	?	-1.6%	5.5%
COC(=O)c1ccccc1NC(=O)/C=C/c1cc(OC)c(OC)c(OC)c1	?	-0.8%	0.5%	11.6%
CCOC(=O)C1(Cc2ccccc2C(F)(F)F)CCN(C(C)CCn2cccn2)CC1 (configuration not stated)	0.2	2.9%	0.7%	-1.1%

Individual results from above:
CCn1cc(CN2CCCC(C(=O)Nc3ccc(-c4cscn4)cc3)C2)c(C)n1 (configuration not stated) in miR-21 FLuc → -15.5%
O=C(Oc1c(CN2CCOCC2)cc(Cl)c2cccnc12)c1ccccc1Cl in GLA inh pH 4.5 → -0.5
O=C(NCc1cccs1)c1cc(-c2cccs2)on1 in Rango release inh → -9.8%
CCCOC(=O)C(C)n1c(-c2ccccc2)nc2ccccc2c1=O (configuration not stated) in miR-21 FLuc → -4.3%
Cn1nnnc1SCC(=O)Nc1nc2c(s1)CCCC2 in GLA inh pH 4.5 → 6.3
CC1CC(C)CN(C(=O)CCc2nnc3ccc(N4CCCCC4)nn23)C1 (configuration not stated) in Rango-impB inh → 1.1%
CCOC(=O)N1CCC(N2Cc3cccc(C(=O)Nc4ccc(F)cc4)c3C2=O)CC1 in miR-21 FLuc → -6.1%
